# Measles inh: inhibitors of measles virus growth in infected cells; infected Vero cells, GFP fluorescence, 64 h; stronger effect = lower value; z-score (concentration not given with the values); 33,000 compounds, 0.1% hits;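 active = z-score under -3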;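 note: score is relative to mean and SD of the compound wells of a plate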
# Numbers without * were called inactive. This is a subset, so the mix of outcomes need not match the whole.
molecule	Measles inh
Cc1ccc(NC(=O)CSc2nc(N)c3c4c(sc3n2)COC(C(C)C)C4)cc1 (centres undefined)	-1.16
CC(C)c1ccc(C2Sc3ccccc3NC3=C2C(=O)c2ccccc23)cc1 (centres undefined)	-0.78
CCCCCC1CCC(C2CCC(C(=O)O)CC2)CC1 (centres undefined)	-0.08
NC(=O)c1cc2cc([N+](=O)[O-])ccc2oc1=Nc1cccc2ccccc12	-0.07
Nc1c(C(=O)Nc2ccccc2)sc2nc3c(c(-c4ccco4)c12)CCCCC3	-1.41
Cc1ccc(NC(=O)C2C3C=CC4(O3)C2C(=O)N(CCc2ccccc2Cl)C4C(=O)NC2CCCC(C)C2C)cc1Cl (centres undefined)	-0.06
COc1ccc(OC)c(S(=O)(=O)NCCC23CC4CC(CC(C4)C2)C3)c1	-1.02
COc1ccc(C(=O)Nc2ccc(Cl)c(NC(=O)c3ccccc3)c2)cc1[N+](=O)[O-]	-1.2
CCC(C)NC(=O)C1CCCN(S(=O)(=O)CC)C1 (centres undefined)	1.36
COc1cc(OC)cc(-n2nc(C(=O)Nc3ccc(Oc4ccccc4)cc3)c3ccccc3c2=O)c1	-0.18
CN(C)c1ccc(C(=O)Nc2cccc3c2C(=O)c2ccccc2C3=O)cc1	1.47
O=C1Nc2ccc(Br)cc2C(O)(C(=O)N2CCCC2)N1c1ccc(Cl)cc1 (centres undefined)	0.48
Cc1onc(-c2ccccc2Cl)c1C(=O)OCC(=O)c1ccc(Br)cc1	0.66
COc1cc(Cl)c(C)cc1NC(=O)C1c2cc(OC)c(OC)cc2C(=O)N(C)C1c1cccnc1 (centres undefined)	0.42
O=C(CSc1nnnn1-c1ccccc1)N1CCc2ccccc2C1	-0.47
O=C1C=C(c2ccccc2)CC(c2cccc([N+](=O)[O-])c2)C1n1nnc2ccccc21 (centres undefined)	-1.61
O=C(NCc1ccc(F)cc1)C1CCN(S(=O)(=O)c2cccnc2)CC1	0.17
CCOC(=O)c1ccccc1NC(=O)Cc1c(C(=O)O)[nH]c2ccc(Cl)cc12	2.95
CCOC(=O)C1C(=O)C=C(c2ccco2)CC1c1ccccc1OC (centres undefined)	-0.29
CC(NC(=O)COc1ccc(C2Nc3ccccc3S(=O)(=O)N2Cc2ccccc2)cc1)c1ccccc1 (centres undefined)	-0.88
O=C(O)c1ccc(Cl)c(N2C(=O)C3CCCCC3C2=O)c1 (centres undefined)	-0.68
Cc1cccc(-n2nc3c(c2NC(=O)CCC2CCCCC2)CS(=O)(=O)C3)c1C	-0.42
CCOC(=O)c1c(NC(=O)c2ccc(Cl)cc2NS(=O)(=O)c2ccccc2)sc2c1CCCC2	0.27
CCOC(=O)c1c(-c2ccccc2)csc1NC(=O)COc1ccc(Cl)cc1C	1.88
CC(C)c1ccc(S(=O)(=O)N(C(=O)c2ccncc2)c2ccc3oc4c(c3c2)CCCC4)cc1	-0.32
O=C(Cn1cnc([N+](=O)[O-])n1)N1CCCC1	1.08
Cn1c(=O)c2c(nc3n2CC(=O)N3c2ccc3c(c2)CCC3)n(C)c1=O	0.22
CCOc1ccccc1C1C2=C(CC(C)(C)CC2=O)Nc2ccccc2N1C(=O)c1ccccc1 (centres undefined)	-0.4
Cc1cc(C)c(NC(=O)COc2ccc(Cl)cc2)c(C)c1	-0.62
COc1ccc(C2C=C(c3cccs3)Nc3ncnn32)c(OC)c1 (centres undefined)	0.43
CCc1ccc(NC(=O)CSc2nc3c(c(=O)n2-c2ccc([N+](=O)[O-])cc2)SCC3)cc1	0.98
C=CCC(C#Cc1ccccc1)N(C)C (centres undefined)	-0.55
Cc1ccc(-c2nc(Nc3cccc(C(=O)O)c3)c3ccccc3n2)cc1	0.31
Cc1ccc(/C(O)=C2\C(=O)C(=O)N(CCN3CCOCC3)C2c2ccc(N(C)C)cc2)cc1 (centres undefined)	1.06
Cc1cccc(C2C=C(c3ccc(Br)s3)Nc3nnnn32)c1 (centres undefined)	8.06
CC(=O)c1ccc(N2CCN(c3ncnc4c3c(-c3ccccc3)cn4-c3ccccc3)CC2)cc1	-0.14
O=C(COC(=O)CN1C(=O)c2cccc([N+](=O)[O-])c2C1=O)OCN1C(=O)c2ccccc2C1=O	0.81
COc1ccc(NS(=O)(=O)c2cc(C(=O)Nc3ccc(Br)cc3)ccc2C)cc1	-1.16
CC(C)OCCCNC(=O)c1cc(Sc2ccc(Cl)cc2)nc2ccccc12	-0.51
CCCOC(=O)C1=C(C)NC2=C(C(=O)CC(C)(C)C2)C1c1ccccc1 (centres undefined)	-0.15

# Four of the compounds above, as labelled records.
SMILES: C=CCC(C#Cc1ccccc1)N(C)C (centres undefined)
  Measles inh = -0.55

SMILES: CC(=O)c1ccc(N2CCN(c3ncnc4c3c(-c3ccccc3)cn4-c3ccccc3)CC2)cc1
  Measles inh = -0.14

SMILES: CCc1ccc(NC(=O)CSc2nc3c(c(=O)n2-c2ccc([N+](=O)[O-])cc2)SCC3)cc1
  Measles inh = 0.98

SMILES: CCCOC(=O)C1=C(C)NC2=C(C(=O)CC(C)(C)C2)C1c1ccccc1 (centres undefined)
  Measles inh = -0.15

# Other records follow.
molecule	Measles inh
Cc1cc(C)cc(-n2c(CCC(=O)O)ccc2-c2ccc(F)cc2)c1	-0.19
CC(=O)Oc1ccc(C(=O)Nc2cc(C)on2)cc1	1.33
COCCn1c(=S)[nH]c2cc(C(=O)NCCN(C)C)ccc2c1=O	0.61
CC(C)=CCn1c(NCc2ccccc2)nc2c1c(=O)[nH]c(=O)n2C	-0.09
CCSc1nnc(NC(=O)CCCN2C(=S)NC(C)(C)CC2C)s1 (centres undefined)	-0.07
Cc1ccc(Nc2c(-c3ccc(C)o3)nc3ccccn23)cc1	0.07
COc1ccc(NC(=O)CSc2cn(Cc3ccccc3C)c3ccccc23)c(OC)c1	0.33
Cc1cc(C)cc(-n2cnc3cc(C(=O)NC4CCCCC4C)ccc32)c1 (centres undefined)	-0.08
COCCNC(=O)c1cc(-c2ccc3c(c2)OCO3)on1	2.49
CCc1sc(Nc2cccc(C)c2)nc1-c1cc2cccc(OC)c2oc1=O	0.02

# Of the compounds above, three contain an NH in an aromatic ring:
molecule	Measles inh
CCOC(=O)c1ccccc1NC(=O)Cc1c(C(=O)O)[nH]c2ccc(Cl)cc12	2.95
COCCn1c(=S)[nH]c2cc(C(=O)NCCN(C)C)ccc2c1=O	0.61
CC(C)=CCn1c(NCc2ccccc2)nc2c1c(=O)[nH]c(=O)n2C	-0.09

# (more compounds)
molecule	Measles inh
CCOC(=O)c1cc2c(=O)n3ccccc3nc2n(C)c1=NC(=O)c1ccccc1Br	-0.74
CCOC(=O)C(Br)C(C(=O)OCC)c1ccc(C)cc1 (centres undefined)	-0.55
O=C1CCCc2oc3c(cc(NS(=O)(=O)c4ccc(Cl)cc4)c4ccccc43)c21	-0.4
CC1=C(C(=O)Nc2ccc(C)cn2)C(c2cccc(Br)c2)C2=C(CC(C)(C)CC2=O)N1 (centres undefined)	-0.18
CCN(C(=O)CN1C(=O)c2ccccc2C1=O)c1ccccc1C	0.14
COc1ccc(C2C3=C(Nc4ncnn42)c2ccccc2OC3c2cccc([N+](=O)[O-])c2)cc1 (centres undefined)	-0.35
CCC1CCCCN1C(=O)c1sc2ncn(Cc3ccccc3F)c(=O)c2c1C (centres undefined)	1.4
O=S(=O)(NC1CCCC1)c1cccc2nsnc12	1.43
O=C(Nc1ccc(Cl)cc1)c1cc(S(=O)(=O)N2CCOCC2)ccc1Cl	-0.93
C=CCn1c(SCc2ccc(C)cc2)nc2cc(C(=O)N3CCOCC3)ccc2c1=O	-1.43
O=C(O)CSC(NC(=O)c1ccccc1)(C(F)(F)F)C(F)(F)F	1.6
CC1CCC(NC(=O)CCn2c(=O)[nH]c3ccccc3c2=O)CC1 (centres undefined)	0.37
Cc1cccc(C)c1OCC(=O)Nc1nccs1	-0.32
COC(=O)CNS(=O)(=O)c1ccccc1[N+](=O)[O-]	1.36
Cc1ccc(CNC(=O)CCN2C(=O)C(C)Oc3ccc(C)cc32)cc1 (centres undefined)	-0.23
Cc1nc(Oc2cccc(Cl)c2)c2oc3ccccc3c2n1	0.08
Cc1onc(-c2ccccc2)c1C(=O)Nc1nc2ccc(S(C)(=O)=O)cc2s1	0.52
CCC(Sc1nc2ccc(N3CCOCC3)cc2c(=O)n1Cc1ccc2c(c1)OCO2)C(=O)Nc1cccc(C)c1 (centres undefined)	-1.1
O=C(CSc1nc2ccccc2c(=O)n1-c1ccccc1)N1CCCCC1	-0.18
Cc1oc(C(=O)O)cc1COc1ccc2c(C)c(C)c(=O)oc2c1C	0.16
CCCc1cc(N2CCN(C3CCCC3)CC2)n2c(nc3ccccc32)c1C#N	-0.1
Cc1ccccc1C(=O)NCC(C)CN(C)C (centres undefined)	-0.77
CC1CCCN(C(=O)CCNC(=O)Cn2cnc3ccccc3c2=O)C1 (centres undefined)	-1.84
CC1CC(C)CN(C(=O)c2cccc3c2-c2ccccc2C3=O)C1 (centres undefined)	0.33
O=C(CCCCCn1c(=O)[nH]c2ccsc2c1=O)NCc1ccc2c(c1)OCO2	-0.72
COc1cccc(CNC(=O)c2ccc(NC(=O)C3CCCO3)cc2)c1 (centres undefined)	0.82
CN1C(=O)C(c2nnc(Nc3cccc4ccccc34)s2)C2CC1(C)Oc1ccccc12 (centres undefined)	-0.21
COc1ccc2c(c1)c(C(C)=O)c(C)n2C	1.19
O=C(Nc1ncc(Cc2ccccc2)s1)C1CCCO1 (centres undefined)	1.43
COc1ccc(-c2cc(C(=O)Nc3ccccc3C(F)(F)F)no2)cc1OC	-1.24
CCS(=O)(=O)N1CCC(C(=O)NCCCN2CCCCC2C)CC1 (centres undefined)	0.03
Cc1ccc(-n2ncc3c(Nc4ccc(Cl)cc4)ncnc32)c(C)c1	-1.11
N#CCSC1=Nc2ccccc2C2=NC(CCC(=O)NCc3ccc(F)cc3)C(=O)N12 (centres undefined)	1.22
Cc1ccc(C)c(N2CCN(C(=O)C(Cc3ccccc3)NS(=O)(=O)c3cccs3)CC2)c1 (centres undefined)	0.75
Cc1ccc(Nc2ncc(C(=O)NCCCN3CCOCC3)c3ccccc23)cc1Cl	0.98
Cc1ccc(NC(=O)CCCCCN2C(=O)c3ccccc3C2=O)c(Br)c1	1.29
Cc1cc([N+](=O)[O-])ccc1Nc1ccc2nonc2c1[N+](=O)[O-]	0.26
Cc1ccc2nc(C)ccc2c1	-1.21
Cc1c(C(=O)N(C)Cc2ccccc2)sc2ncn(CC(=O)N3CC(C)CC(C)C3)c(=O)c12 (centres undefined)	0.84
CCOc1ccc(NC(=O)C2CCN(S(=O)(=O)c3ccc(Br)s3)CC2)cc1	-1.19
COCCn1c(SCC(=O)NCc2ccco2)nc2c(c1=O)SC(C)C2 (centres undefined)	0.26
Cc1cc(C(c2cc(C)c(N)c(C)c2)c2ccco2)cc(C)c1N	-0.91
COc1ccc(-n2cnc3cc(C(=O)NC4CCCC4)ccc32)cc1	-0.86
CCc1nc2ccc(C(=O)NC(C)c3ccccc3)cc2nc1CC (centres undefined)	0.24
O=C(Nc1cccc2nsnc12)c1cnsn1	-0.31
CCOC(=O)c1c(C)n(C)c2c1cc(OC(=O)CC(C)C)c1ccccc12	-0.31
CCOc1ccc(S(=O)(=O)N2CCSC2c2ccc([N+](=O)[O-])cc2)cc1 (centres undefined)	-0.38
O=C(Nc1ccc(C(F)(F)F)cc1)c1cc(S(=O)(=O)N2CCCc3ccccc32)ccc1F	0.86
Cc1ccccc1Nc1nnc(-c2ccc(C)c(S(=O)(=O)N3CCOCC3)c2)c2ccccc12	0.46
COC(=O)C1=C(C)N=C2SCCC(=O)N2C1c1cccs1 (centres undefined)	-0.02

# (continued)
molecule	Measles inh
Cc1onc(-c2ccccc2Cl)c1C(=O)Nc1ccccc1	0.68
C=CCOC(=O)C1=C(C)Nc2ncnn2C1c1ccccc1OCC (centres undefined)	-0.28
O=C(c1noc2c1CCCC2)N1CCCCC1	-0.78
O=[N+]([O-])c1ccc(N2CCOCC2)s1	-2.55
COc1ccc(-n2c(=O)c3ccccc3n(Cc3ccc(Cl)cc3)c2=O)c(OC)c1	0.74
NC(=O)C1CCN(C(=O)c2ccc3c(=O)n(C4CCCCC4)c(SCc4ccc(Cl)cc4)nc3c2)CC1	1.26
CCOC(=O)C1CCN(c2cc(Nc3ccc(N(C)C)cc3)c3c4c(onc24)-c2ccccc2C3=O)CC1	-0.57
O=C(Nc1ccc(S(=O)(=O)N2CCCCC2c2cccnc2)cc1)c1ccc([N+](=O)[O-])cc1 (centres undefined)	-0.43
COC(=O)c1c(NC(=O)COc2ccccc2C)sc(C)c1C	1.13
c1ccc(-c2nnc(Nc3ccc4c(c3)OCCO4)c3ccccc23)cc1	-0.54
O=c1c(Oc2ccccc2)coc2cc(O)ccc12	0.09
COc1ccc(CSc2nc3ccc(I)cc3c(=O)n2-c2ccccc2)cc1	0.72
COc1ccc(NC(=O)c2sc3nc(-c4ccccc4)cn3c2C)c(OC)c1	-0.6
CCCN(C(=O)c1cc2cc3ccc(OC)cc3nc2o1)c1ccc(CC)cc1	-0.65
Cc1cccc(C)c1OCC(=O)Nc1ncn[nH]1	-0.37
Oc1ccc(Br)cc1C=Nc1nc2c(s1)CCCC2	0.99
O=S(=O)(NC1c2ccccc2Oc2ccccc21)c1ccc(Cl)cc1	-0.44
CCOC(=O)c1c(-c2ccccc2)oc2ccc(NS(=O)(=O)c3cc([N+](=O)[O-])ccc3C)cc12	-0.12
O=C(CSc1nc2ccccc2[nH]1)Nc1ccccc1F	0.35
C=CCn1c(-c2ccc(Cl)cc2)csc1=Nc1ccccc1	-1.22
O=S(=O)(c1ccccc1)N1CCN(C2CC3CCC2C3)CC1 (centres undefined)	-0.28
COc1cccc(Nc2ncc(C(=O)Nc3cc(C)ccc3OC)c3ccccc23)c1	-1.11

# Screens as filed in PubChem BioAssay.
